Bioassay records (PubChem)
Ecoli growth: blocks Escherichia coli growth. OD600, 23 h; active compounds read low. OD600 absorbance (concentration not given with the values). 330,000 tested, 0.21% active. AID 1053175;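 active = OD600 absorbance below the run mean of sample wells minus 3.6 SD, in any replicate, cut at about 0.56 in these data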;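 also: stock transfer was 300 nL into about 60 µL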
Beta2AR agonist: activates human beta-2 adrenergic receptor causing internalization; P07550; Am2.2-beta2AR cells, FAP receptor internalization, flow cytometry; reference of the scale not given here; response, % (concentration not given with the values); 340,000 tested, 0.43% active;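 active = response above a set limit, near 3 SD of response in nonfluorescent compounds, cut at about 42% in these data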;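 also: stock transfer was 100 nL into about 11 µL; a reference agonist was the positive control; negative values mostly stem from fluorescent compounds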
FGF22 binding: shifts melting point of recombinant human FGF22; Q9HCT0; recombinant FGF22 thermal shift, SYPRO orange fluorescence; percent of sucrose octasulfate shift, DMSO zero; calls only at 9.99 µM; 340,000 tested, 1.5% active;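 active = melting point raised past a set limit in the mean and every replicate; three in four hits are not shown here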
HNF4A DNA FP: change in binding of human HNF4 alpha to DNA. AID 1224865. P41235. HNF4a-FITC DNA binding, fluorescence polarization, 1 h. 360,000 tested, 0.3% active. activity change, % at 10 µM; in the data active = activity change above about 30%, passing the limit was not always enough;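 also: controls were the assay level and a saturating level of protein; the project sought stronger binding though the title names inhibitors; some compounds called inactive have numbers as strong as hits; positive values seem to mean higher polarization but the record does not say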
LANA-H2A inh: blocks KSHV LANA binding to histone H2A/H2B; 320,000 tested, 0.6% active; inhibition, % (test concentration not listed); AID 2629; cell-free LANA-H2A/H2B peptide, fluorescence polarization; Q9QR71; in the data active = inhibition mostly above about 10%, no sharp cut-off; inactive = mostly below about 6.7%;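 also: stock transfer was 7.5 nL into about 10 µL; 0% = median of vehicle wells and 100% = median of positive control wells; one replicate is shown; the record names a cut of 25% in any replicate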
Target sequence (Q9QR71 whole entry, looked up): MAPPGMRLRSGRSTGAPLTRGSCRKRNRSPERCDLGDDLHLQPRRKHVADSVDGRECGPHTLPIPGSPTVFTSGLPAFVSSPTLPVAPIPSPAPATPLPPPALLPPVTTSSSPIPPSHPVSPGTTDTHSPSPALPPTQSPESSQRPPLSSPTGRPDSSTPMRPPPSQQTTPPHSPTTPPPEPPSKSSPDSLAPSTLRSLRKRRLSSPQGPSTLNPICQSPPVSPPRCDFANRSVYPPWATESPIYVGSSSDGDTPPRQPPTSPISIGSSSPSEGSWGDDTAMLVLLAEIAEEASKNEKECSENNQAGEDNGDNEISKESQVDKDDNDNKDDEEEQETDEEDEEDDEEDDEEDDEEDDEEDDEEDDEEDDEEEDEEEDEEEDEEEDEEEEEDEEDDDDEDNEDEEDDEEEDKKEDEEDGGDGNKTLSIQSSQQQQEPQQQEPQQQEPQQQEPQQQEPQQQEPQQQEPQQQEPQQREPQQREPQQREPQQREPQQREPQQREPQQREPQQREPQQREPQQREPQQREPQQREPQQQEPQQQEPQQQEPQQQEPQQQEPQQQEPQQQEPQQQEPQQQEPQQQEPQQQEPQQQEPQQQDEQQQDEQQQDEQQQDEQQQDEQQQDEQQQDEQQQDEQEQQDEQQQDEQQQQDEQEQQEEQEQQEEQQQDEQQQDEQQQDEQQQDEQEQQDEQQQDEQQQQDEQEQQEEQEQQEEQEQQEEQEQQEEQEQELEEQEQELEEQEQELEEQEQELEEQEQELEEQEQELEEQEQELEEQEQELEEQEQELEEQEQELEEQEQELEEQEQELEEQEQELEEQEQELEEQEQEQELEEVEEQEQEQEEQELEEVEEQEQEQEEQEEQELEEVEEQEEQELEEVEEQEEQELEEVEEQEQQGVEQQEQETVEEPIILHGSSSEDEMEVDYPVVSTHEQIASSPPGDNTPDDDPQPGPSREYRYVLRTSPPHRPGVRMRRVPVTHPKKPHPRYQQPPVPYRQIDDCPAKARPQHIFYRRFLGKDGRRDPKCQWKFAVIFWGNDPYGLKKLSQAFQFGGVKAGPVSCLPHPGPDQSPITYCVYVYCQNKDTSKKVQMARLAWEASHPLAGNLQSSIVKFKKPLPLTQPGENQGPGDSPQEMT
UCH37 inh: human UCH37 deubiquitinating enzyme inhibition; Q9Y5K5; purified proteasome/UCH37, Ub-AMC cleavage fluorescence; inhibition, % (concentration not given with the values); 330,000 tested, 0.33% active; AID 588478;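 active = mean of two replicates above 20%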;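 also: 0% = compound-free wells with enzyme and 100% = wells lacking proteasome; stock transfer was 100 nL into about 20 µL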
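Signal – fluorescence, ex 355 nm, em 460 nm · System – Proteasome-bound UCH37 · Input – 0.15 nM proteasome as dispensed · Timing – 30 min preincubation with enzyme, 25 min cleavage at room temperature · Read-out basis – percent inhibition of cleavage signal versus uninhibited and no-proteasome wells · Medium – Tris-HCl pH 7.4 with ATP-MgCl2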
ALR inh: inhibitors of human sulfhydryl oxidase ALR. P55789. purified ALR, DTT oxidation, H2O2 HRP-luminol luminescence. inhibition, % (no concentration beside the values). 290,000 tested, 3.8% active. AID 485317;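 active = mean and each replicate at 75% or more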;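 also: stock transfer was 7.5 nL into about 7.5 µL; 0% = neutral wells and 100% = wells with inactivated enzyme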
Active calls of the source: *; i = inactive; x = no result given; + = active, no number.

The line under a structure holds: ALR inh	HNF4A DNA FP	UCH37 inh	Ecoli growth	FGF22 binding	LANA-H2A inh	Beta2AR agonist
> O=C(NCc1ccccc1)c1onc(CSc2nc3ccccc3[nH]2)c1C(=O)NCc1ccccc1
  5	-0.3	1.8	0.72	i	2.2	8
> CC(C)Oc1ccc(C(=O)Nc2nnc(C3=COCCO3)o2)cc1
  -6	-2.5	4.1	0.67	i	-3.6	2
> Cc1ccc2cc(CCNC(=O)C3CCCCC3)c(=O)[nH]c2c1C
  -6	-2.4	0.8	0.72	i	-3.2	-4
> Brc1ccc(-c2noc(COc3ccc4c(c3)CCC4)n2)o1
  -1	-0.3	3.1	0.72	i	0.8	5
> CCOc1ccccc1Nc1nc2ccccc2n1C(C)C
  -10	2.8	0.5	0.72	i	4.8	0
> Cc1cccc(NC(=O)CSCC(=O)Nc2ccc(S(=O)(=O)N3CCCCC3)cc2)c1
  x	-5.4	-0.2	0.68	i	x	-1
> CCOc1ccccc1NC(=O)CSc1n[nH]c(=O)n1-c1ccccc1
  x	-1.1	x	x	i	2.5	-2
> O=c1c2ccccc2sn1-c1ccc(F)cc1
  19	5.5	1.5	0.67	i	-2.2	-11
> C=CCOC(=O)C(C#N)c1nc2ccccc2nc1N1CCN(c2ccccc2OCC)CC1 (stereo unspecified)
  -5	4.9	2.8	0.71	i	7.9	-5
> Cc1cc(C)nc(SCC(=O)NN=C2CCCC2)n1
  15	-1.6	1.3	0.71	i	-2.2	-11
> COc1ccccc1C(=O)OCC(=O)N1CCC(Cc2ccccc2)CC1
  x	-3.7	-2.4	0.71	i	x	4
> Cc1ccccc1NC(=O)CN1C(=O)S/C(=C/c2cccnc2)C1=O
  -1	2.5	2.9	0.68	i	-2.6	1
> CC[C@]12c3[nH]c4ccccc4c3CCN1C(=O)C(CC(=O)NCc1ccc(OC)c(OC)c1)C[C@@H]2C(=O)N1CCN(C(=O)C2CC2)CC1 (stereo partly specified)
  x	2.4	6.1	0.7	i	0.1	-7
> CCn1cc(C2=NOC(C(=O)Nc3ccccc3C(=O)OC)C2)c(C)n1 (stereo unspecified)
  -2	1.6	4.0	0.67	i	-24	-16
> C=CCn1c(SCC(=O)NCCCC)nc2scc(-c3ccco3)c2c1=O
  53	-32	0.4	0.73	x	-0.8	2

3 compounds from above, arranged by formula weight, lowest first.
The line under a structure holds: ALR inh	HNF4A DNA FP	UCH37 inh	Ecoli growth	FGF22 binding	LANA-H2A inh	Beta2AR agonist
> Cc1ccccc1NC(=O)CN1C(=O)S/C(=C/c2cccnc2)C1=O
  -1	2.5	2.9	0.68	i	-2.6	1
> Brc1ccc(-c2noc(COc3ccc4c(c3)CCC4)n2)o1
  -1	-0.3	3.1	0.72	i	0.8	5
> COc1ccccc1C(=O)OCC(=O)N1CCC(Cc2ccccc2)CC1
  x	-3.7	-2.4	0.71	i	x	4

(cont.)
The line under a structure holds: ALR inh	HNF4A DNA FP	UCH37 inh	Ecoli growth	FGF22 binding	LANA-H2A inh	Beta2AR agonist
> Cc1sc(NC(=O)CS(=O)(=O)c2ccccc2)c(C(N)=O)c1C
  63	-0.2	3.8	0.65	+	3.8	-5
> CCN(CC)c1ccc(N2C(=NC(=O)C3CCCO3)SC3CS(=O)(=O)CC32)cc1 (stereo unspecified)
  99*	6.5	4.6	0.66	i	3.9	1
> COc1cc(NCC(=O)Nc2cccc(S(=O)(=O)N3CCCCC3)c2)cc(OC)c1OC
  -8	4.0	2.2	0.69	i	0.2	10
> CCc1cc(CNC(=O)C2CCC(=O)N(Cc3cccc(F)c3)C2)on1 (stereo unspecified)
  2	0.8	0.8	0.7	i	-3.3	-1
> COc1ccc(Cl)cc1NC(=O)CCN1CCN(C)CC1
  x	-1.9	3.4	0.73	x	2.7	2
> CCOC(=O)C(NC(=O)c1ccc(OC)cc1)(N1CCOCC1)C(F)(F)F (stereo unspecified)
  0	2.1	-2.8	0.66	x	0.2	-7
> Cc1ccc[n+](C(C)C(=O)Nc2ccc(C)c([N+](=O)[O-])c2)c1 (stereo unspecified)
  -8	-0.8	3.3	0.71	x	-0.2	-1
> Cc1nc2sc(C(=O)c3ccccc3)c(N)c2c2c1CCCC2
  17	-0.2	-2.4	0.7	i	-1.0	-6
> CC1(C)OC(=O)C(=CNc2ccccc2)C(=O)O1
  -4	4.3	2.8	0.64	x	-6.3	-11
> O/N=C/c1cn(-c2ccccc2)nn1
  -5	3.1	x	x	i	-0.1	4
> COc1cc(NC2CCCCC2O)c2nc(-c3ccc(Cl)cc3)ccc2c1 (stereo unspecified)
  -65	4.5	-0.2	0.66	i	6.2	26
> CC(=O)Nc1cccc(-c2csc(Nc3ccc(Cl)cn3)n2)c1
  98*	2.1	-2.0	0.7	i	-9.1	-3
> COc1cccc(/C=N/Nc2snc(SC)c2C#N)c1
  -4	-4.6	x	x	x	-2.5	26
> O=c1cc(S(=O)(=O)Cc2ccccc2)[nH]c(=O)[nH]1
  x	0.6	3.8	0.7	i	x	1
> CCCCN(C)C(=O)Cn1cnc2sc(C)cc2c1=O
  x	-1.4	1.0	0.74	x	x	-7
> CCN(CC(=O)Nc1ccccc1OC)CC(=O)Nc1ccccc1C(F)(F)F
  -3	2.9	2.0	0.68	i	-0.1	-7
> CC1(C)C(c2ccccn2)=[N+]([O-])C(C)(C)N1O
  9	-1.5	1.9	0.7	x	-4.0	-8
> Nc1nc2ccc(NC(=O)c3ccco3)cc2s1
  x	3.4	2.6	0.68	i	-1.4	-23
> COc1cc(NC(=O)c2ccc3c(c2)OCCO3)ccc1NC(=O)c1ccccc1Cl
  x	-2.2	-2.3	0.73	i	0.7	2
> Cc1cc2[nH]c(=O)c(=O)[nH]c2cc1S(=O)(=O)Nc1cccc(Cl)c1
  4	1.1	11	0.71	i	1.1	6
> CC(=O)NCc1ccc(C(=O)CCl)cc1
  20	5.0	5.8	0.51*	i	-1.7	0
> COc1ccc(NC(=O)CN(C)C(=O)c2ccc(-c3cccc(C(F)(F)F)c3)o2)cc1
  -9	1.4	0.3	0.7	i	5.4	-4
> CC(C)(C)SC(=O)CC1NS(=O)(=O)OCC1NC(=O)OCC(Cl)(Cl)Cl (stereo unspecified)
  3	2.0	4.0	0.82	i	-5.4	-5
> COc1ccc(N2CCN(C(=O)COC(=O)[C@@H](NC(=O)c3c(F)cccc3F)C(C)C)CC2)cc1
  x	4.5	x	x	i	x	12
> Cc1ccccc1Cn1nc(C)c(NC(=O)c2noc3c2CCc2ccccc2-3)c1C
  -17	1.2	4.7	0.67	i	-2.8	5
> O=C1CN(C(=O)c2ccccc2[N+](=O)[O-])C(c2ccccc2)c2cc(Br)ccc2N1 (stereo unspecified)
  -15	0.4	7.2	0.66	i	-0.5	6
> Nc1c(NCc2ccccc2)c(=O)[nH]c(=O)n1Cc1ccccc1
  21	-1.3	3.2	0.7	x	7.3	1
> C/C(=N/NC(=O)C1CCCCC1)c1ccc([N+](=O)[O-])cc1
  -7	-4.1	x	x	x	1.4	-9
> O=C(NCc1ccccc1)C1(c2ccccc2)CCN(S(=O)(=O)c2ccccc2)CC1
  -10	-0.8	1.8	0.75	i	0.6	12
> COCc1cc(C)nc(SCC[N+](C)(C)CC(=O)c2ccccc2)c1C#N
  -46	3.4	1.6	0.73	i	-1.5	-2
> Cc1ccc(N(CCC#N)C(=O)COC(=O)C2CCN(S(=O)(=O)c3ccc(C)c(C)c3)CC2)cc1
  -14	1.8	8.4	0.72	i	2.1	6
> CC(=O)c1ccc(OCc2cc(C(=O)N(C)Cc3ccccn3)no2)cc1
  -9	-2.9	3.8	0.73	i	-16	7
> CC1CCCCN1CCCNC(=O)C1CCN(c2nnc(-n3cccc3)s2)CC1 (stereo unspecified)
  -4	4.8	-0.3	0.7	i	3.4	-8
> Cc1ccc(S(=O)(=O)NCCC(=O)NCc2ccccc2)cc1
  1	-2.6	4.4	0.74	i	0.4	-7
> COc1ccc(C(=O)Cn2nnc(-c3ccccc3NC(=O)C3CC3)n2)cc1
  -4	0.4	1.2	0.7	x	-4.9	-3
> Clc1ccc2nc(-c3ccc(Br)s3)cn2c1
  -3	1.0	-23	0.69	x	-0.8	-7
> CCN(CC)CCCN=C(C)C1=C(O)c2ccccc2C1=O
  2	3.3	8.8	0.69	i	0.2	0
> Fc1ccc(CCNC(=S)Nc2ccc(F)c(Cl)c2)cc1
  -7	-2.9	-0.3	0.58	+	1.1	-11
> O=C(Nc1cccnc1)c1ccccc1O
  4	0.2	0.1	0.68	x	2.3	0
> CC1CCCC(NS(=O)(=O)c2cc(Br)cnc2N)C1C (stereo unspecified)
  -2	0.6	1.9	0.63	i	-2.0	-5
> O=C(N=Nc1c(O)[nH]c2ccccc12)c1cc(NS(=O)(=O)c2cccs2)cc(NS(=O)(=O)c2cccs2)c1
  8	1.7	x	x	i	-0.2	-3
> CN(CC(=O)N1CCN(c2ccccn2)CC1)S(=O)(=O)c1ccc(Br)cc1
  -11	-1.8	4.8	0.64	x	3.5	107*
> CN(C)S(=O)(=O)c1ccc(C(=O)NCCOc2ccc(F)cc2)cc1
  0	-0.2	0.8	0.68	i	-5.0	-1
> CC(=O)C1=C(O)C(=O)N(CCCO)C1c1ccccc1 (stereo unspecified)
  -2	1.3	4.6	0.69	i	-0.9	-4
> O=C(CSc1nc2ccccc2c(=O)[nH]1)N1CCN(S(=O)(=O)c2ccccc2)CC1
  0	-4.1	-0.6	0.77	i	7.0	-2
> CCN1C(=O)/C(=C2\SC(=S)N(NC(=O)c3ccccc3O)C2=O)c2ccccc21
  4	-4.5	2.8	0.66	i	0.9	6
> CCN(CC(=O)NCc1cccs1)C(=O)CCC(=O)c1ccc(F)cc1
  1	-0.6	-1.3	0.68	i	0.0	0
> CC(C)(C)OC(=O)N[C@H](C(=O)OC(C)(C)C)c1ccc2ccccc2c1
  0	4.0	2.0	x	i	-4.2	-4
> CC(C)(C)C(=O)Oc1cc(N)n(S(=O)(=O)c2ccccc2)n1
  5	2.1	5.4	0.66	x	5.5	9
> O=S(=O)(Nc1ccc(-c2nnc(SCc3ccc(Cl)cc3)o2)cc1)c1ccccc1
  -30	-1.4	5.4	0.7	x	0.6	43*
> O=C1CC(Nc2ccccc2)C(=O)N1CCc1ccccc1 (stereo unspecified)
  4	-0.8	4.9	0.7	x	0.4	-1
> Cc1cccc(NC(=O)C(C)N2C(=O)C3C4CC(C(Br)C4Br)C3C2=O)c1 (stereo unspecified)
  1	3.8	7.6	0.67	x	-3.0	9
> O=C(CN1C(=O)C2CC=C(Cl)CC2C1=O)N1CCOCC1 (stereo unspecified)
  -12	-0.1	3.1	0.71	x	-3.0	6
> Cc1ccc(S(=O)(=O)N2CCCCC2)cc1NC(=O)COC(=O)C1=COCCO1
  -4	2.3	6.2	0.73	i	-4.6	2
> N/C(=N\OC(=O)N1c2ccccc2Sc2ccccc21)c1ccccc1
  74	2.6	1.8	0.64	i	-1.3	31
> CC(C(=O)N(C)C)N1c2cccc3cccc(c23)S1(=O)=O (stereo unspecified)
  -27	-0.7	-38	0.66	i	2.0	-6
> CCCCOc1ccc(C(=O)N2CCCC2)cc1
  -12	6.2	1.0	0.66	i	-0.9	-17
> O=C(CSc1ncnc2sc3c(c12)CCCC3)c1ccccc1
  16	-1.9	1.6	0.7	x	5.2	-14
> O=C1NC(=Nc2ccc(O)cc2)S/C1=C/c1ccco1
  11	0.5	2.0	0.75	i	1.2	-15
> O=C(Cc1cccc2ccccc12)Nc1cc(C(=O)O)cc(C(=O)O)c1
  12	-1.0	0.1	0.73	i	1.9	0
> Cc1cc(C)cc(NC(=O)N2c3ccccc3NC(=O)CC2C)c1 (stereo unspecified)
  x	-3.8	4.5	0.69	i	-1.8	1
> Cc1cc(C)n2nc(C(=O)NCc3ccccc3)cc2n1
  -6	-0.5	-38	0.63	i	-2.8	-1
> CC(=O)c1sc(-c2ccc(F)cc2F)nc1C
  -3	0.8	2.2	0.64	i	-3.2	-1

A portion of the library (hit frequency here may not be typical).
